Source: PubChem (several laboratories)
RGS16-Gao HTS = regulators of human RGS16-Galphao interaction. bead-based flow cytometry RGS16-Galphao binding, fluorescence; actives lie on both sides. 220,000 tested, 0.38% active. binding response (% of control), % at 10 µM. O15492+P09471;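 active = below 25% or above 175%, edge rows of some plates excepted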;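 also: Galphao activated by GDP with aluminum fluoride before binding; 100% = wells without compound and 0% = beads without RGS; some results beyond the cut were filed as inactive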
Target sequence (O15492 whole entry, looked up): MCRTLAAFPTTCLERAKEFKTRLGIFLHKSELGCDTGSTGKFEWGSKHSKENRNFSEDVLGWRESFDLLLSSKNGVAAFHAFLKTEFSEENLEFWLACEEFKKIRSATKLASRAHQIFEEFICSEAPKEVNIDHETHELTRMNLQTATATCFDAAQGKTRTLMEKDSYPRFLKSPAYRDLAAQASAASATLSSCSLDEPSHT
Target sequence (P09471 whole entry, looked up): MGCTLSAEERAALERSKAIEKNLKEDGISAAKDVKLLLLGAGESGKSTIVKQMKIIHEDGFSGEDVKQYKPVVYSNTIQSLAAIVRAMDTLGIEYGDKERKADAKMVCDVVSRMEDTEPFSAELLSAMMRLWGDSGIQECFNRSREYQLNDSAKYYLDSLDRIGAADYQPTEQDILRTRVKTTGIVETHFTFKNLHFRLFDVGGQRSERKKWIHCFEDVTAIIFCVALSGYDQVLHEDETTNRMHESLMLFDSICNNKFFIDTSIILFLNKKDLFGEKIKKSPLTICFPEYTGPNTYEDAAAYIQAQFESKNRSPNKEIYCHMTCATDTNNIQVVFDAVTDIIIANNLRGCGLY
GALR2 agonist = agonists of human galanin receptor 2 (GALR2); O43603; GALR2-expressing cells, agonist activation read-out; activation, %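 (tested at 5 µM)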; 140,000 tested, 0.48% active; AID 803;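 active = above mean plus 3 SD of all compounds, about 5% in these data, not always enough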;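 also: 0% = vehicle buffer wells and 100% = reference agonist at full effect; tested in CHO reporter cells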
Target sequence (O43603 whole entry, looked up): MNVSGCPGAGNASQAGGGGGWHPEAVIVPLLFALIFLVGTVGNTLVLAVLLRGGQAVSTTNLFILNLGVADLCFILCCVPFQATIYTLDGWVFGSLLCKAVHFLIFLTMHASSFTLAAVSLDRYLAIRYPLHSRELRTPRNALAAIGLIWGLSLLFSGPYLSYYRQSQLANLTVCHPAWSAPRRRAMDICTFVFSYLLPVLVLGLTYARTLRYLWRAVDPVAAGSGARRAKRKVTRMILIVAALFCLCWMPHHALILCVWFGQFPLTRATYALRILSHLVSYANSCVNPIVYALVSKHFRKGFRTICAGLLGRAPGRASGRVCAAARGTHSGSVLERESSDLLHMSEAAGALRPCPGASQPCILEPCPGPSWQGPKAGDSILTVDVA
HSV augment = HSV replication enhancement; maximum fold increase; 220,000 tested, 0.005% active; AID 1956; HSV replication augmentation in cells, fold increase;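 active = peak rise of 1.5-fold or more in the series; inconclusive = self-fluorescent or not available for retest; tested in PC3 cells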;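 also: first round at 10 µM; read as green reporter fluorescence; hits show the peak of a series up to 25 µM; 1 = signal of infected wells without compound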
PKD1 kinase inh = inhibitors of human PKD1 kinase. Q15139. PKD1 kinase fluorescence polarization assay. inhibition, %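 (about 10 µM by stock and volumes)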. 200,000 tested, 0.056% active. AID 797;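 active = inhibition of 50% or more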;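 also: controls were vehicle for no effect and a reference inhibitor for full effect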
Insulin prom inh = TRM-6 insulin promoter activity inhibition | TRM-6 cells (human fetal islet line), insulin promoter-eGFP reporter, imaging; reporter expression induced with tamoxifen | AID 1273 | 130,000 tested, 0.9% active | inhibition, % at 2 µM;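 active = inhibition above the mean plus 3 SD, with well images judged a real hit on visual review, cut at about 60% in these data, passing the limit was not always enough; inconclusive = inhibition over the cutoff but images rejected on review; inactive = inhibition not above the cutoff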
Insulin prom inh cell count = recorded beside Insulin prom inh, whose call it bears; normalized cell count, %; measured here: cell count, toxicity; reference of the scale not given here;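 cells exposed to compound for 48 h; stained nuclei by imaging scaled within each plate; lower means fewer cells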
HSV augment primary fold = recorded beside HSV augment, whose call it bears; fold increase; compound at 10 µM; measured here: primary screen fold increase 10 uM; tested in PC3 cells;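 GFP signal in the first replicate; 1 = infected wells without compound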
Starred values were filed as active, the others as inactive; i = inactive; ? = inconclusive; · = no result given.

SMILES | RGS16-Gao HTS | GALR2 agonist | HSV augment | HSV augment primary fold | PKD1 kinase inh | Insulin prom inh | Insulin prom inh cell count
Oc1ccc(N=Nc2n[nH]c(-c3ccccc3)n2)cc1 | 14* | -0.4 | i | 1.1 | -5 | 3 | 80
CCc1ccc(-c2nnn(Cc3nc4ccccc4s3)n2)cc1 | 97 | -0.2 | i | 1.1 | 1 | 0 | 113
COc1cccc(-c2nc(CS(=O)CC(=O)NC3CCCC3)c(C)o2)c1 (configuration not stated) | 105 | -2.8 | i | 1 | -4 | · | ·
COC(=O)C1C(=O)C2=C(CC1C)NC(=O)CC2c1cccc(C)c1 (configuration not stated) | 89 | -2.3 | i | 0.99 | 6 | -3 | 107
COc1ccc(/C=C(\NC(=O)c2ccccc2)C(=O)NNC(=O)CCN2CCOCC2)cc1 | 102 | · | i | 0.82 | -5 | · | ·
O=C(Nc1ccccc1)N(c1ccccc1)C1C=CS(=O)(=O)C1 (configuration not stated) | 99 | · | i | 0.91 | · | · | ·
CC12CCC(C(=O)N(c3ccccn3)c3ccccn3)(OC1=O)C2(C)C (configuration not stated) | 101 | -1.2 | i | 0.95 | 3 | 25 | 102
CC(=O)Nc1cc(Cl)ccc1OS(=O)(=O)c1ccc(C)cc1 | 54 | -0.9 | i | 0.97 | 10 | 6 | 65
Cc1cc(N(C)Cc2ccccc2)nc(-c2ccccc2)n1 | 112 | -2.2 | i | 0.9 | -2 | 0 | 79
CCn1c(COc2ccccc2C)nnc1SCC(=O)N1CCC(C)CC1 | 110 | -3.1 | i | 0.92 | -1 | -3 | 106
COc1ccc(C(=O)NNC(=S)Nc2ccccc2)cc1 | 110 | · | i | 0.67 | -1 | · | ·
O=C(NC1(C(F)(F)F)C(=O)Nc2c1c(=O)[nH]c(=O)n2Cc1ccco1)C1CCCCC1 (configuration not stated) | 113 | -1.6 | i | 1.1 | -3 | 24 | 86
Cc1cc([N+](=O)[O-])ccc1NCc1ccco1 | 103 | · | i | 1 | 0 | · | ·
CCc1nc2oc3ccccc3c(=O)c2c(=O)n1Cc1ccc(OC)cc1 | 93 | -0.9 | i | 0.78 | 3 | 36 | 87
O=C(CNC(=S)N(Cc1ccccc1F)C1CCCCC1)NCCN1CCOCC1 | 105 | · | i | 1 | 4 | -7 | 44
Cc1cc(-c2ccccc2)[nH]c(=O)c1S(=O)(=O)c1ccccc1 | 101 | -4.4 | i | 0.78 | 5 | 31 | 88
CCC(CC)C(=O)NCCc1cc2c(C)ccc(C)c2[nH]c1=O | 96 | · | · | · | 1 | · | ·
Cc1cc(=O)c2ccc3ccccc3c2[nH]1 | 98 | -0.6 | · | · | -1 | -3 | 105
Cc1ccc(C(=O)NC(=O)OCCn2c(C)cnc2[N+](=O)[O-])cc1 | 106 | · | i | 0.95 | -3 | -13 | 99
CC(=O)c1ccc(NC(=O)CC2Nc3cccc4cccc(c34)NC2=O)cc1 (configuration not stated) | 96 | · | i | 0.95 | -2 | · | ·

The list goes on, starting with the last 5 of the part before.
SMILES | RGS16-Gao HTS | GALR2 agonist | HSV augment | HSV augment primary fold | PKD1 kinase inh | Insulin prom inh | Insulin prom inh cell count
Cc1cc(-c2ccccc2)[nH]c(=O)c1S(=O)(=O)c1ccccc1 | 101 | -4.4 | i | 0.78 | 5 | 31 | 88
CCC(CC)C(=O)NCCc1cc2c(C)ccc(C)c2[nH]c1=O | 96 | · | · | · | 1 | · | ·
Cc1cc(=O)c2ccc3ccccc3c2[nH]1 | 98 | -0.6 | · | · | -1 | -3 | 105
Cc1ccc(C(=O)NC(=O)OCCn2c(C)cnc2[N+](=O)[O-])cc1 | 106 | · | i | 0.95 | -3 | -13 | 99
CC(=O)c1ccc(NC(=O)CC2Nc3cccc4cccc(c34)NC2=O)cc1 (configuration not stated) | 96 | · | i | 0.95 | -2 | · | ·
COC(=O)C1=NN(c2cccc3ccccc23)C2C(=O)N(c3ccccc3OC)C(=O)C12 (configuration not stated) | 88 | · | i | 1 | · | · | ·
COC(=O)Cn1c(=O)c2c(n(Cc3ccccc3)c1=O)N/C(=C/c1ccc(Br)cc1)C2=O | 98 | · | i | 1 | · | · | ·
O=C(Nc1cccc(Cl)c1)Nc1nc(-c2ccc(Cl)cc2)cs1 | 104 | -1.3 | i | 0.91 | 1 | · | ·
CCOC(=O)CN1C(=O)C(Sc2n[nH]c(-c3ccccc3)n2)CCc2ccccc21 (configuration not stated) | 112 | 0.7 | i | 1.1 | -1 | 22 | 64
Cc1ccc(C)c(NC2=CC(=O)CC(C)(C)C2)c1C#N | 100 | 0.1 | i | 0.9 | -15 | -18 | 117
COc1ccc(Cn2c(=O)oc3ccc(C)cc32)cc1OC | 101 | -1.2 | i | 0.84 | -6 | -35 | 132
Cc1ccc(NC(=O)Cn2c(=O)n(Cc3ccco3)c(=N)c3c4c(sc32)COC(C)(C)C4)cc1 | 98 | -3.8 | i | 0.99 | -4 | · | ·
O=C(NCc1ccco1)c1nc2nc(-c3cccs3)cc(C(F)(F)F)n2n1 | 93 | 0.5 | i | 0.81 | -33 | · | ·
CCCN(CC(=O)Nc1ccc(OC)c(OC)c1)CC(=O)Nc1ccc(F)c(F)c1F | 101 | · | i | 0.97 | -1 | · | ·
Cc1ccc(N=C2NC(=O)/C(=C/c3cccn3C)S2)cc1 | 96 | · | i | 1.1 | · | · | ·
COc1ccc(NC(=O)Nc2ccc(Cc3ccncc3)cc2)cc1OC | 116 | -1.8 | i | 1 | -4 | · | ·
CN1C(=O)CC(N2CCN(c3ccc(Cl)c(Cl)c3)CC2)C1=O (configuration not stated) | 102 | 0.0 | i | 0.9 | -2 | 24 | 43
CC(=O)Nc1ccc(NC(=O)COc2ncnc3ccccc23)cc1 | 109 | · | i | 1.1 | -2 | · | ·
Nc1c(Cl)cc(NC(=O)c2ccccc2C(=O)O)cc1Br | 100 | -0.5 | i | 1 | -9 | -27 | 90
CCOC(=O)COc1c(Cl)cc(C2NC(=S)NC(c3ccccc3)=C2C(C)=O)cc1OC (configuration not stated) | 116 | -0.5 | i | 0.95 | 9 | 19 | 65
O=C(NC(Cc1c[nH]c2ccccc12)C(=O)O)/C(=C/c1ccc2c(c1)OCO2)NC(=O)c1ccccc1 (configuration not stated) | 102 | · | i | 1.1 | -8 | 73* | 56*
Fc1ccccc1OCCCCSc1ncccn1 | 96 | 0.1 | i | 0.68 | -3 | 23 | 159
CC(=O)c1ccc(C#CC(C)(C)O)s1 | 101 | -1.8 | i | 0.91 | -12 | · | ·
C/C(=N\O)C(C)(C)Nc1ccc(F)cc1 | 105 | · | i | 1 | · | · | ·
CC1CCCN(Cc2csc(N)n2)C1 (configuration not stated) | 102 | · | i | 0.93 | -2 | 27 | 93
COc1ccc2cc(C(c3nnnn3C(C)(C)C)N3CCSCC3)c(=O)[nH]c2c1 (configuration not stated) | 105 | -1.1 | i | 0.92 | -14 | 33 | 165
CN(C)/C(Cn1cncn1)=C1/N=C(c2ccccc2)OC1=O | 103 | · | i | 1.2 | 4 | · | ·
CCn1ncc(C(=O)Nc2ccccc2C)c1C | 98 | -1.0 | i | 0.97 | -9 | -367 | 101
COc1ccc(C2C(C#N)=C(C)NC(C)=C2C(=O)OC(C)C)c(OC)c1 (configuration not stated) | 102 | · | i | 1 | 3 | 24 | 107
COCCN=C1Sc2nc3ccc(C)cc3cc2CN1Cc1cccs1 | 96 | · | i | 0.89 | 4 | · | ·
COc1ccc(S(=O)(=O)N(C)CC(=O)Nc2ccccc2SC)cc1Cl | 102 | -0.6 | i | 0.91 | -7 | 13 | 130
O=C(COc1ccc(Nc2ccccc2)cc1)OCC(=O)N1CCCCC1 | 114 | · | i | 0.81 | · | · | ·
CCOP(=O)(OCC)C(Nc1ccc(C(=O)O)cc1)c1ccccc1 (configuration not stated) | 100 | · | i | 1 | · | · | ·
O=C(CCc1ccccc1)NCCc1cccs1 | 98 | · | i | 0.9 | 0 | · | ·
Cc1ccc(-c2cc(C(=O)NCc3ccc4c(c3)OCO4)no2)cc1 | 102 | -0.9 | i | 0.95 | -14 | -288 | 136
CNC(=O)CN(c1ccc(OC)cc1)S(=O)(=O)c1ccc(F)cc1 | 103 | -1.1 | i | 0.78 | -1 | 48 | 95
C=CCn1c(C)cc(C(=O)CSc2nc3ccccc3o2)c1C | 101 | -1.8 | i | 1 | -3 | 17 | 84
CC(C)c1ccc(/C=C2\Oc3c(ccc(O)c3CN3CCN(C)CC3)C2=O)cc1 | 100 | · | ? | · | 3 | · | ·
O=C(NNC(=O)c1ccccc1-n1cccc1)c1ccc(Cl)cc1Cl | 101 | -0.1 | i | 0.91 | -3 | 10 | 56
CCc1ccccc1NCC(=O)Nc1ccc(Cl)c(C(F)(F)F)c1 | 20* | -1.9 | i | 0.89 | -8 | -11 | 101
CC1CCCCC1NC(=S)Nc1ccc(Cl)cc1Cl (configuration not stated) | 103 | · | i | 1 | -3 | 5 | 88
Cc1[nH]c2ccccc2c1C(c1ccncc1)N1CCC(C)CC1 (configuration not stated) | 105 | · | i | 1.1 | -4 | 11 | 130
Nc1nc(SCC(=O)Nc2cc(-c3ccccc3)nn2-c2ccccc2)n[nH]1 | 110 | -1.1 | i | 1.1 | 4 | 16 | 60
O=c1cc(N2CCOCC2)c2ccccc2o1 | 113 | -1.1 | i | 0.91 | 5 | 65 | 39
C=CCOn1c(=O)c(-c2ccc(OC)c(OC)c2)[n+]([O-])c2ccccc21 | 93 | 0.7 | i | 0.95 | -5 | · | ·
Cc1cccc(NC(=O)C2CCN(S(=O)(=O)c3c(C)noc3/C=C/c3ccco3)CC2)n1 | 116 | -0.3 | i | 1.1 | 1 | 12 | 90
CC(=O)CSc1ncnc2sc3c(c12)CCCC3 | 116 | · | i | 0.92 | -3 | -182 | 16
CCOc1ccc2ccccc2c1CNc1nnnn1CC | 106 | · | i | 0.94 | -7 | · | ·
CCCCn1c(NC(=O)c2ccc(Br)o2)c(S(=O)(=O)c2ccccc2)c2nc3ccccc3nc21 | 98 | 7.9 | i | 1.1 | 1 | 64 | 156
Cc1cccc(NC(=O)c2cccc(NC(=O)Cc3cccs3)c2)c1 | 102 | · | i | 0.9 | 2 | · | ·
Cc1cccc(NC2=NC(C)(C)N=C(N)N2)c1 | 115 | · | i | 1 | -7 | · | ·
CSCCC(NC(=O)c1ccccc1C)C(=O)O (configuration not stated) | 103 | · | i | 0.97 | 5 | · | ·
CN(C[C@H](Cc1ccccc1)N(C[C@H](CC1CCCCC1)N(CCc1ccccc1)N=O)N=O)N=O | 97 | · | i | 0.72 | -1 | · | ·
Cc1cc(=O)oc2cc(OCC(=O)OCC(=O)N3CCC(C)CC3)ccc12 | 100 | · | i | 0.95 | -3 | · | ·
COc1ccccc1/C=C1\SC(=O)N(CCC(=O)NNC(=O)c2ccccc2Cl)C1=O | 98 | -1.6 | i | 1 | -4 | 46 | 110
O=C(c1ccc2nc3ccccc3c(=O)n2c1)N1CCN(Cc2ccc3c(c2)OCO3)CC1 | 103 | -1.4 | i | 0.91 | 9 | · | ·
C=C(C(=O)c1ccccc1)C(c1ccccc1)C(C)C(=O)c1ccccc1 (configuration not stated) | 92 | -0.9 | i | 1.1 | -4 | · | ·
CN(Cc1ccccc1)C(=O)COC(=O)c1ccc(S(=O)(=O)N(C)C)cc1 | 100 | · | i | 1.2 | -1 | · | ·
CC1=Nc2cc(Cl)ccc2Oc2ccccc21 | 100 | · | i | 1.1 | 5 | · | ·
CN(Cc1ccccc1)C(=O)COC(=O)c1ccccc1NS(=O)(=O)c1cccc(N)c1 | 106 | -0.8 | i | 0.95 | 13 | 14 | 148
Cc1cc(C(=O)OCC(=O)Nc2ccc(F)cc2[N+](=O)[O-])c2ccccc2n1 | 51 | -1.5 | i | 0.99 | -2 | -54 | 46
COc1ccc2c3c([nH]c2c1)C1(NCC3)C(=O)Nc2ccccc21 (configuration not stated) | 105 | · | i | 0.94 | · | · | ·
Cc1ccc(C(=O)N2CCN(Cc3ccc4c(c3)OCO4)CC2)cc1S(=O)(=O)N1CCOCC1 | 100 | · | i | 1.1 | · | · | ·
COc1cccc(CNc2ncc(Br)cc2Br)c1O | 108 | -1.0 | i | 0.95 | 7 | · | ·
COc1cc(/C=N/O)cc(Br)c1OCC(=O)NCc1ccccc1 | 36 | 0.3 | i | 0.91 | -13 | -23 | 70
Cc1cc2c(cc1C)-c1c(ssc1=Nc1ccc(S(N)(=O)=O)cc1)C(C)(C)N2 | 107 | · | i | 0.76 | 11 | 50 | 129
